Screening results (PubChem BioAssay)
Tg IFNy HTS – blocks Toxoplasma gondii growth in the presence of IFN-gamma; Toxoplasma gondii growth in IFN-gamma-treated host cells; active compounds read low; reference of the scale not given here; activity change, negative = inhibition, %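 (about 20 µM by stock and volumes)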; actives 3.8% (n = 69,000); AID 1259416;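 active = below -70%; inconclusive = fit judged invalid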;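 note: host cells are HeLa cells infected with Toxoplasma gondii; parasite growth read as luciferase light; one replicate is shown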
* = called active by the depositor; i = inactive; ? = inconclusive; & = joins results of further samples. The list is partial; rates above refer to the full screens.

SMILES | Tg IFNy HTS
O=C(NCCc1ccccc1F)N1CCCn2cncc2C1 | -4
COc1ccc(-n2c(=O)n(Cc3nc(-c4ccccc4C)oc3C)c(=O)c3cccnc32)cc1 | 10
CC(C)NC(=O)Nc1ccc2c(c1)C(=O)N(C)[C@@H]1CC[C@@H](CC(=O)NCc3ccc(F)cc3)O[C@H]1CO2 | 21
Cc1nc(NCCn2cccn2)c2cnn(C)c2n1 | 0
CS(=O)(=O)CCn1cnc(-c2ccccc2)c1-c1cc2ccccc2o1 | -8
N#C[C@H]1[C@H](c2ccccc2-c2ccccc2F)[C@@H](CO)N1C(=O)c1cccc(F)c1 | 8
COC(=O)C[C@H]1CC[C@H]2[C@H](COc3ccc(NC(=O)Nc4c(C)noc4C)cc3C(=O)N2C)O1 | 16
N#Cc1ccc(-c2ccc(C3[C@H]4CNC[C@@H]3N4C(=O)NC3CCCCC3)cc2)cc1 (stereo partly drawn) | 26
CCc1ncc(C(=O)N(CC)Cc2cc(Cl)ccc2OC)cn1 | -39
O=C1CCC(C(=O)NCCCCC2CCCO2)=NN1 (stereo not drawn) | 5
COc1ccc(-c2nc(N)nc3c2CN(CC2CC=CCC2)C3)cc1 (stereo not drawn) | -5
COc1c(C)cc(-c2ccc(C(=O)N(C)C)o2)cc1C | 14
Cc1nnnn1-c1cc2c(s1)CCCC2 | 1
c1cncc(CN(CCCN2CCOCC2)Cc2cccc3cccnc23)c1 | 6
CN1CCN(C(=O)CN2C(=O)c3cccc4cccc(c34)C2=O)CC1 | -15
O=S(=O)(Cc1ccccc1)N1CC2CN(Cc3ccccc3Cl)CC2C1 (stereo not drawn) | 1
CC1(C)C2=CC3(C)N(CC(=O)N2c2ccccc21)c1ccccc1C3(C)C (stereo not drawn) | -17
Clc1ccc2nc(-c3cccs3)c(NC3CCCCC3)n2c1 | 15
Cc1cc(CN2CCCC2)ccc1Oc1cncc(C(=O)N2CCCC2)n1 | 1
Cc1ncc(CN2CCC3(CC2)CNC(=O)C3)cn1 | 37

4 entries from above in a different format.
N#C[C@H]1[C@H](c2ccccc2-c2ccccc2F)[C@@H](CO)N1C(=O)c1cccc(F)c1
- Tg IFNy HTS = 8
COC(=O)C[C@H]1CC[C@H]2[C@H](COc3ccc(NC(=O)Nc4c(C)noc4C)cc3C(=O)N2C)O1
- Tg IFNy HTS = 16
N#Cc1ccc(-c2ccc(C3[C@H]4CNC[C@@H]3N4C(=O)NC3CCCCC3)cc2)cc1 (stereo partly drawn)
- Tg IFNy HTS = 26
CCc1ncc(C(=O)N(CC)Cc2cc(Cl)ccc2OC)cn1
- Tg IFNy HTS = -39

The listing continues.
SMILES | Tg IFNy HTS
N#CC1C(N)=Nc2nc(N)[nH]c(=O)c2C1c1ccccc1 (stereo not drawn) | -68
O=C(C[C@H]1CC[C@H](NC(=O)CN2CCOCC2)[C@@H](CO)O1)NC1CCC1 | -27
COc1ccc(NC(=O)c2nccnc2C(=O)O)c(N2CCOCC2)n1 | 9
CC(=O)Nc1ccc2nc(CN3CCN4CCNC(=O)C4C3)ccc2c1 (stereo not drawn) | -27
COc1ccc2c(c1OC)C(C1c3c(cc4c(c3OC)OCO4)CCN1C)OC2=O (stereo not drawn) | 6
Cn1cc(C[C@@H]2[C@H](N3CCOCC3)CCN2c2ncccn2)cn1 | -47
O=C(NCc1ccc2c(c1)OCO2)C1CC(=O)N(c2ccc(OCc3ccccc3)cc2)C1 (stereo not drawn) | 7
COCC12CCCOC1CCN(C(=O)CC1C=CCC1)C2 (stereo not drawn) | 28
NC(=O)C1CCN(C(=O)CC(c2ccccc2)c2ccccc2)CC1 | -25
Cc1ccc(CN2CCC(CNC(=O)C(C)n3c4ccccc4c4cnn(C)c(=O)c43)C2)cc1 (stereo not drawn) | -104*
Cc1cc(C)c2c(n1)nn1c(N3CCCC(O)C3)cc(C)nc21 (stereo not drawn) | -7
CCOc1ccc(NC(=O)N2CCC3(CC2)Nc2cc(OC)ccc2-n2cccc23)cc1 | 214
O=C(NCc1ccccn1)C1CCN(Cc2cc3n(n2)CCCNC3)CC1 | 26
CC(C)NC(=O)N1CCc2nc(C(=O)N3CCCCC3)sc2CC1 | -5
CCC(C(=O)N1CCC2(CC1)C(=O)NCCN2C)n1cccn1 (stereo not drawn) | -1
CCOCC1CN(C(=O)[C@H]2CCCO2)Cc2nnn(CC3CC3)c21 (stereo partly drawn) | 17
COc1ccc(-c2nc(C)c(CCNC(=O)C(=O)Nc3ccc(C)cc3)s2)cc1 | 31
CCc1cnc(N2[C@H](C#N)[C@@H](c3ccc(-c4cccc(F)c4)cc3)[C@@H]2CO)s1 | -28
c1ccc(-c2cc3ccccc3[nH]2)cc1 | 130
O=C(Nc1ccc(F)c(Cl)c1)c1c(O)c2cccnc2n(-c2cccc(F)c2)c1=O | -102*
O=C1C(Cc2c[nH]c3ccccc23)N=C2c3ccccc3N=C(SCc3ccccc3Cl)N12 (stereo not drawn) | 6
O=C(Cn1ncc2c(N3CCN(c4ccccn4)CC3)ncnc21)N1CCCCCC1 | -10
COC1CCN(S(=O)(=O)N2CCCC2c2ccc(F)cc2)CC1 (stereo not drawn) | -44
Cc1ccccc1CN1CCC2(CCN(S(=O)(=O)Cc3ccccc3)C2)C1 (stereo not drawn) | 7
COc1ccc(OCC(=O)N2CCC[C@@H]2C(=O)NCCc2csc(-c3ccccc3)n2)cc1 | 12
CC/C=C(\C)CN1CCN(C(=O)c2ccccc2)CC1 | 5
CN(Cc1cc(-c2cccs2)n[nH]1)C(=O)c1cnn2ccn(C)c12 | -9
Nc1nc(OCc2ccccc2)c2[nH]cnc2n1 | 15
O=C(C[C@H]1CC[C@H]2[C@@H](COC[C@H](O)CN2S(=O)(=O)c2ccccc2)O1)NCC1CCCCC1 | -49
CCOc1ccc(CNc2nc(-c3nnc(-c4ccccc4)o3)nc3ccccc23)cc1 | -14
CO[C@@H]1CN(C)C(=O)c2cc(NC(=O)Nc3ccc4c(c3)OCO4)ccc2OC[C@@H](C)N(C(C)=O)C[C@H]1C | 494
CCOC(=O)CCCCC(=O)c1[nH]c(=O)[nH]c1CSc1nc2ccccc2s1 | 21
CCOc1ccccc1NC(=O)N1C[C@H](N(C)C)C[C@H]1CO | 6
CCCn1nnnc1SCC(=O)N1C(C)CCCC1C (stereo not drawn) | -76*
COc1ccc(N2C(=O)C3C(C2=O)C(C(=O)c2ccccc2)N2CCCC32)cc1 (stereo not drawn) | 34
COC(=O)CN(c1ccc(F)cc1)S(C)(=O)=O | -3
CCCS(=O)(=O)N1CCC2(CC1)CN(c1ccccn1)CCO2 | 4
CCn1c(C2CCN(C(=O)c3cccc4c(C)c(C)[nH]c34)CC2)n[nH]c1=O | 4
O=S(=O)(c1ccc(F)cc1)N1CCC2(CC1)Nc1ccc(Cl)cc1-n1cccc12 | -46
COC(=O)c1c(C)oc2cc(Br)c(OS(C)(=O)=O)cc12 | 2
C/C=C/c1ccc([C@@H]2[C@@H](CO)N(Cc3nccs3)C23CN(CC2CCCC2)C3)cc1 | 21
c1ccc2c(Sc3ncnc4sccc34)cccc2c1 | ?
CC(C)Cn1c2c(ccc1=O)CC(NCc1nccs1)CC2 (stereo not drawn) | -6
COc1ccccc1/C=C/CN1CCC2(CC1)C(=O)NCCN2C | 0
Cc1nn(C)c(C)c1CNC(=O)c1ccc(-c2nc(CN3CCc4ccccc43)c(C)o2)cc1 | 108
COc1ccc2oc3ccccc3c(=O)c2c1 | 12
CCN1CCC2(CN(C(=O)N(C)C)CC23CCN(CC2CC2)CC3)C1=O (stereo not drawn) | -37
c1cc(-c2nccn2CCn2ccnc2)ccn1 | -50
CC(C)CN1CC(C(=O)NCCS(=O)(=O)N2CCCC2)CC1=O (stereo not drawn) | 0
O=C(c1ccsc1)N1CCC2(CC1)Cc1ccccc1CNC2=O | -31
C[C@@H](NC(=O)C[C@@H]1CC[C@H]2[C@@H](COc3ccc(NS(=O)(=O)c4ccc(Cl)cc4)cc3C(=O)N2C)O1)c1ccccc1 | 7
CN1CCN(c2oc(-c3ccc(Cl)cc3)nc2C#N)CC1 | -57
CCn1c(SCc2nc(-c3ccc(Cl)cc3)oc2C)nc(=O)c2c(C(=O)OC)cc(C)nc21 | 116
CCCn1cc(S(=O)(=O)N2CCN(Cc3csc(C)n3)CC2)c(C)n1 | 3
Cc1noc(C)c1NC(=O)N(C)C[C@H]1OCc2cnnn2CCCC(=O)N([C@@H](C)CO)C[C@@H]1C | 51
C=CCn1c(=S)sc2c(N3CCN(c4ccccc4)CC3)ncnc21 | -20
CC(C)C1CN(C(=O)CCc2ccncc2)CCCN1Cc1ccc(F)cc1 (stereo not drawn) | -18
CCOc1ccc(-c2nc(CN(c3ccc(OC)cc3)S(=O)(=O)c3ccc(C)cc3)c(C)o2)cc1 | -38
Cc1cc(C)n(CCn2ccnc2-c2cc3ccccc3o2)n1 | -5
C[C@@H]1CN([C@@H](C)CO)C(=O)c2cc(C#CC3(O)CCCC3)cnc2O[C@@H]1CN(C)S(=O)(=O)c1cccc(F)c1 | 96

Pulled by compound from the list above (6):
SMILES | Tg IFNy HTS
Cc1nc(NCCn2cccn2)c2cnn(C)c2n1 | 0
O=C(NCc1ccccn1)C1CCN(Cc2cc3n(n2)CCCNC3)CC1 | 26
COc1ccccc1/C=C/CN1CCC2(CC1)C(=O)NCCN2C | 0
CCOc1ccc(CNc2nc(-c3nnc(-c4ccccc4)o3)nc3ccccc23)cc1 | -14
C=CCn1c(=S)sc2c(N3CCN(c4ccccc4)CC3)ncnc21 | -20
CCN1CCC2(CN(C(=O)N(C)C)CC23CCN(CC2CC2)CC3)C1=O (stereo not drawn) | -37

The list goes on.
SMILES | Tg IFNy HTS
COc1ccc(-n2cc(CNCc3cccnc3)c(-c3cccc(F)c3)n2)cc1 | 16
Cc1cc(CC(C)NC(=O)c2cc3ncccn3n2)n[nH]1 (stereo not drawn) | -3
O=C(CC1CC2(CCN(Cc3ccco3)CC2)Oc2ccccc21)NC1CC1 (stereo not drawn) | -13
CCCCc1nc(Cl)c(CN2CCc3nc(C)[nH]c(=O)c3C2)[nH]1 | 1
Cc1ccccc1C(C(=O)N1CCN(C2CCOCC2)CC1)N(C)C (stereo not drawn) | -6
COc1ccc2c3c([nH]c2c1)[C@H](CO)N(C(=O)c1ccccn1)CC31CN(C(=O)C2CCC2)C1 | 0
Cc1ccc2nc3nc(NCC4CCCO4)c(C(=O)NCc4ccccc4)cc3c(=O)n2c1 (stereo not drawn) | -34
CCN1CCO[C@H]2CCN(S(=O)(=O)c3sccc3C)C[C@H]21 | -4
COc1ccc2c(c1OC)C(=O)N1C2SC[C@H]1C(=O)NC1CC(C)(C)NC(C)(C)C1 (stereo partly drawn) | 1
COc1cccc(CCc2nnc(NC(=O)c3nc(C)n(-c4ccccc4)n3)s2)c1 | -18
CC(C)N(CCCNC(=O)Nc1ccc(C(C)(C)C)cc1)C[C@H]1O[C@@H](n2cc(Br)c3c(N)ncnc32)[C@H](O)[C@@H]1O | -50
COc1cc2[nH]c3c(=O)n(CCC(=O)NCc4ccncc4)cnc3c2cc1OC | 29
CCn1c(=O)c(-c2nc(-c3ccncc3)no2)c(O)c2ccccc21 | 34
CC[C@@H](Cn1nc(-c2cccs2)oc1=O)NC(=O)C(C)C | -2
COc1ccc(-c2nc(N3CCCc4ccccc43)c3ccccc3n2)cc1 | 62
Cc1ccccc1S(=O)(=O)N1CCCC2(C1)Nc1cccnc1NC2=NC1CCCC1 (stereo not drawn) | -32
CNC(=O)[C@H]1C[C@@H]2CN(Cc3cnn(C)c3)C[C@@H]2N1C(C)C | -2
CCc1ccc(NC(=O)N2CCC3(CC2)NC(=O)c2cc(Cl)ccc2N3C)cc1 | 122
CCc1sc(C(=O)O)cc1-c1cccc(C(C)N2CCCC2)c1 (stereo not drawn) | 3
Cc1ccc(-c2nc3c(s2)CN(S(=O)(=O)c2cccc(Cl)c2C)CC3)cc1 | -76*
O=c1[nH]c(NCCO)nc2sc3c(c12)CCCC3 | 9
Cn1ncc2c(NCCSc3cn[nH]n3)nc(C3CCCC3)nc21 | -18
COc1ccc(-c2csc(-n3nc(C(F)(F)F)cc3-c3ccc(Br)cc3)n2)cc1 | 37
CCOc1ccc(C(=O)NCCc2sc(-c3cccc(F)c3)nc2C)cc1 | -42
O=C(Cc1cccs1)N1CCC2(CC1)Nc1ccc(Cl)cc1-n1cccc12 | 45
CCCN1CC[C@H]2OC[C@H](C(=O)NCCc3cccs3)C[C@H]2C1 | 2
COc1ccc(NC(=O)N(C)C[C@@H]2OCc3cnnn3CCCC(=O)N([C@H](C)CO)C[C@H]2C)c(OC)c1 | i
CCCNC(=O)N1C[C@@H]2[C@H](c3ccccc31)[C@H](CO)N2C(=O)Nc1ccccc1F | 1
O=C(NCCc1csc(-c2ccc(Cl)cc2)n1)c1ccc(F)c(F)c1 | -22
CN1C(=O)c2cc(NC(=O)c3cccc(F)c3)ccc2OC[C@@H]2O[C@H](CC(=O)NCC3CCCCC3)CC[C@H]21 | -10&-4
O=C(NCCc1c[nH]c2ccccc12)C1=C2CCCN2c2ccc(F)cc2S1(=O)=O | 185
C[C@@H]1O[C@@]2(CS1)CN1CCC2CC1 (racemic) | 12
O=C(Nc1ccccc1F)N1[C@@H]2CNC[C@H]1C2c1ccc(-c2ccncc2)cc1 (stereo partly drawn) | 20&-4
CC(C)CC(=O)N1CCc2nc(C(N)=O)sc2CC1 | 7
O=C(Nc1ccc(Cl)cn1)Nc1ccccc1Cl | 57
N#C[C@H]1[C@H](c2ccccc2)[C@H](CO)N1C(=O)CCN1CCCCC1 | 17
CNC(=O)c1cc(=O)n(CC(=O)Nc2ccc(Cl)cc2)c2ccccc12 | 1
